RE007 growth inh: less growth of the S. pombe RE007 Vpr strain; S. pombe RE007 Vpr strain, BacTiter-Glo ATP luminescence, 24 h; control for the full effect not named in the record; Potency, µM (doses to about 92.2 µM), inactives show top-dose activity change, negative = less growth; hit rate 0.21% among 360,000; active = well fitted falling curve with a large enough effect; inconclusive = small, poorly fitted or top-dose-only effect; inactive = no such curve, though single readings can be large or run the other way;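 further: on the % scale 0 is the no-effect control and ±100 the full control effect; nearly all actives have a fitted effect of over 50% in size; the assay follows cell death caused by Vpr and the record does not say whether a fall means rescue or toxicity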
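Fission yeast strain RE007, carrying one chromosomally integrated HIV-1 vpr copy, was seeded at OD 0.01 in PMG+AL medium with 23 nL pinned compound. After 24 h at 30 °C and 99% humidity, viability was read by BacTiter-Glo luminescence.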
Cruzain inh noDet: blocks cruzain activity in detergent-free assay; purified cruzain, Z-FR-AMC fluorescence, no detergent; hit rate 2.3% among 200,000; AID 1476; P25779; Potency, µM, for inactives: max response, negative = inhibition, usual class: inhibitors;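 further: plate controls were enzyme without inhibitor for no effect and buffer without enzyme for full effect; nearly all actives have a fitted effect of over 40% in size; top concentration of the series not given in the record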
Target sequence (P25779 123-467 limits assumed): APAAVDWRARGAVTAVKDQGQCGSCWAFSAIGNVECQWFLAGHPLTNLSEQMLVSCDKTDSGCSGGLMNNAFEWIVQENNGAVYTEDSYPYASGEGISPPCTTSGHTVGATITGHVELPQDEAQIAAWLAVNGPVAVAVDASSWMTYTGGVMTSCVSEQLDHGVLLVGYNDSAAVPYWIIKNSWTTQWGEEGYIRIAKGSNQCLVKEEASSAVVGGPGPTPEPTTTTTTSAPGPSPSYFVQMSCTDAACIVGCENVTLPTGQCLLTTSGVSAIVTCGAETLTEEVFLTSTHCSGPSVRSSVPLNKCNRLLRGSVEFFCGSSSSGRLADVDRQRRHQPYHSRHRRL
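Purified cruzain at 1.5 nM, pre-incubated 15 min with compound at room temperature in 100 mM sodium acetate pH 5.5, 5 mM DTT, 0.00005% Triton X-100. Reaction started with 2 uM Z-FR-AMC; AMC fluorescence increase over 60 s gives rate.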
SARS PLpro yeast: blocks SARS-CoV papain-like protease in a yeast assay; S. cerevisiae expressing SARS-CoV PLpro, growth rescue; control for the full effect not named in the record; Potency, µM (top dose mostly 32.9 µM), without a hit: at the top dose activity, positive = growth rescue; hit rate 0.19% among 330,000; active means well fitted rising curve with a large enough effect; inconclusive means small, poorly fitted or top-dose-only effect; inactive means no such curve, though single readings can be large or run the other way; further: 0% is about no effect; nearly all actives have a fitted effect of over 55% in size; growth read by luminescence after 48 h
Lassa entry inh: blocks Lassa virus binding to or entry into cells | AID 540256 | hit rate 1.2% among 300,000 | Lassa virus pseudotype entry inhibition, cell reporter; control for the full effect not named in the record | Potency, µM (doses to about 37.9 µM), for inactives: top-dose activity change, negative = inhibition, hits mostly inhibitors; active means well fitted inhibition curve with a large enough effect; inconclusive means small, poorly fitted or top-dose-only effect, or effect the other way; inactive means flat fitted curve, though single readings scatter; tested in HEK293 cells; further: on the % scale 0 is the no-effect control and ±100 the full control effect; nearly all actives have a fitted effect of over 50% in size; luciferase read-out
Marburg entry inh: inhibitors of Marburg virus binding or cell entry | Marburg virus pseudotyped entry inhibition, cell reporter; control for the full effect not named in the record; about a third of the inactives were read at about 46 µM | Potency, µM (doses to about 37.8 µM), for the others: at the top dose activity change, negative = inhibition, hits mostly inhibitors | hit rate 1.8% among 300,000; active = well fitted inhibition curve with a large enough effect; inconclusive = small, poorly fitted or top-dose-only effect, or effect the other way; inactive = flat fitted curve, though single readings scatter; tested in HEK293 cells; about a fifth of its hits are not listed in these tables; further: on the % scale 0 is the no-effect control and ±100 the full control effect; luciferase read-out
Cruzain inh Det: inhibitors of Trypanosoma cruzi cruzain with detergent; P25779; purified cruzain, Z-FR-AMC fluorescence, 0.01% Triton; Potency, µM, inactives show max response, negative = inhibition, hits mostly inhibitors; hit rate 0.43% among 200,000; AID 1478;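 further: plate controls were neutral wells for no effect and buffer without enzyme for full effect; nearly all actives have a fitted effect of over 40% in size; top concentration of the series not given in the record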
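15 min RT preincubation of 1.5 nM cruzain with compound, then 2 uM Z-FR-AMC added; kinetic AMC fluorescence, 60 s delta. Triton X-100 0.01%, pH 5.5.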
NS1 inh: blocks influenza NS1 protein function; S. cerevisiae slowed by influenza A NS1, growth recovery by OD600; Potency, µM (highest dose often 46.1 µM), inactives show top-dose activity, positive = more growth; hit rate 0.4% among 270,000; active means well fitted rising curve with a large enough effect; inconclusive means small, poorly fitted or top-dose-only effect; inactive means no such curve, though single readings can be large or run the other way; further: nearly all actives have a fitted effect of over 50% in size
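OD600 was taken as the measure of yeast growth restored by compound in an NS1-expressing S. cerevisiae strain. Cells had been washed out of glucose medium and diluted 1:100 into galactose -URA medium, pH 6.0.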
StopGo reporter: lowers the luciferase signal of an FMDV 2A StopGo reporter. human cells with a luciferase reporter of 2A StopGo recoding; control for the full effect not named in the record. Potency, µM (highest dose often 57.9 µM), without a hit: top-dose signal change, negative = less light. hit rate 1.2% among 410,000. AID 1159524; active = well fitted falling curve with a large enough effect; inconclusive = small, poorly fitted or top-dose-only effect; inactive = no such curve, though single readings can be large or run the other way; tested in HEK293T cells; further: on the % scale 0 is the no-effect control and ±100 the full control effect; nearly all actives have a fitted effect of over 45% in size; luciferase light after 4 h
An asterisk follows results filed as active; [ ] = remark or other dose. Unless noted, the call rests on the fitted dose curve; in most records, active means well fitted curve in the direction sought with a large enough effect; inconclusive means small, poorly fitted or top-dose-only effect, or another doubt; inactive means no such curve, though single readings can be large; an effect the other way counts as inactive or inconclusive. Potency means the concentration at half of the fitted maximal effect. Outcome played no part in choosing rows; any-hit rate near 4.7%.

CCOC(=O)Cc1ccc(NC(=O)NCc2cccn2Cc2ccccc2)cc1 was read as Cruzain inh noDet -4%, Lassa entry inh -3%[46.1 µM], Cruzain inh Det -5.5% and StopGo reporter -15%.
Cn1cc(CCC(=O)NC2CC(C)(C)Cc3c2cnn3-c2ccc(F)cc2)cn1 (centres undefined) was read as RE007 growth inh 21%, SARS PLpro yeast 2%, Lassa entry inh -10%, Marburg entry inh -4%, NS1 inh -5% and StopGo reporter 14%.
O=C1C2C3C=CC(O3)C2C(=O)N1Nc1ccccc1 (centres undefined) was read as RE007 growth inh 16%, Lassa entry inh 11%[46.1 µM], Marburg entry inh -1%[46.1 µM] and StopGo reporter -10%.
`Cc1c(S(=O)(=O)Nc2cc(Cl)ccc2Cl)c(=O)n(C)c(=O)n1C` gave RE007 growth inh 16%, Cruzain inh noDet 7%, SARS PLpro yeast 12%, Cruzain inh Det -2.3%, NS1 inh -4% and StopGo reporter -16%.
For CC(/C=N/Nc1nnc2c(n1)[nH]c1ccccc12)=C\c1ccco1 the results were RE007 growth inh -2%, Cruzain inh noDet 10µM*, SARS PLpro yeast 6%, Lassa entry inh 2%, Marburg entry inh -11%, Cruzain inh Det -1.8%, NS1 inh 11% and StopGo reporter 32%[activator].
For Cc1ccc(Nc2cc(C)c(O)c(C)c2)cc1 the results were RE007 growth inh -7%, SARS PLpro yeast 0%, Lassa entry inh -13%, Marburg entry inh inconclusive, NS1 inh -3% and StopGo reporter 46%[activator].
Screening Cc1ccc(-c2noc(C3CCCN(C(=O)c4ccc(F)cc4F)C3)n2)cc1 (centres undefined) returned RE007 growth inh 5%, Cruzain inh noDet 2%, SARS PLpro yeast -10%, Lassa entry inh inconclusive, Marburg entry inh 1%, Cruzain inh Det -6.2%, NS1 inh -66% and StopGo reporter -29%.
Screening COc1ccccc1CN1C(=O)CN(C2CCCCCC2)C(=O)C1c1ccc(C)cc1 (centres undefined) returned Cruzain inh noDet -8%, Lassa entry inh inconclusive, Cruzain inh Det 0.2% and StopGo reporter -18%.
Screening COC(=O)c1nn(-c2ccccc2)c(=O)cc1Oc1ccc(Cl)cc1 returned RE007 growth inh -2%, Cruzain inh noDet -6%, SARS PLpro yeast -1%, Lassa entry inh 10%, Marburg entry inh -1%, Cruzain inh Det 1.5%, NS1 inh -2% and StopGo reporter 6%.
For COc1ccc(CC(=O)NC2CCN(CC(=O)N3CCCc4ccccc43)CC2)cc1OC the results were RE007 growth inh 11%, Cruzain inh noDet -7%, SARS PLpro yeast 4%, Lassa entry inh 11%, Marburg entry inh inconclusive, Cruzain inh Det 5.0%, NS1 inh -7% and StopGo reporter -6%.
Screening C/C(=N/N=C/c1ccc(N(C)C)cc1)c1ccccc1 returned RE007 growth inh -18%, Cruzain inh noDet -13%, SARS PLpro yeast -5%, Lassa entry inh inconclusive, Marburg entry inh inconclusive, Cruzain inh Det -2.4%, NS1 inh -25% and StopGo reporter 10µM*.
Screening Cc1cc(=O)oc2c(C)c(OC(C)C(=O)NC3CCN(Cc4ccccc4)CC3)ccc12 (centres undefined) returned RE007 growth inh 6%, SARS PLpro yeast -2%, Lassa entry inh 14%[46.1 µM], Marburg entry inh -7%[46.1 µM], NS1 inh -3% and StopGo reporter -7%.
Screening CCN=C(NS(=O)(=O)c1ccc(Br)cc1)c1ccc(Cl)cc1 returned RE007 growth inh 2%, SARS PLpro yeast -1%, NS1 inh 0% and StopGo reporter 41%[activator].
Screening N#CC1=C(N)N(c2ccc(F)cc2)C(=O)C1 returned RE007 growth inh -1%, Cruzain inh noDet -2%, SARS PLpro yeast 2%, Lassa entry inh -6%, Marburg entry inh -1%, Cruzain inh Det -1.6% and NS1 inh -1%.
CCOc1ccccc1C(=O)Nc1cccc(-c2ccc3nncn3n2)c1 was read as RE007 growth inh -26%, SARS PLpro yeast -5%, Lassa entry inh inconclusive, Marburg entry inh 7.1µM* and StopGo reporter -29%.
O=C(Nc1ccc(C(=O)N2CCOCC2)cc1)c1cnn2c(C(F)F)cc(-c3ccccc3)nc12 was read as RE007 growth inh 3%, SARS PLpro yeast 0%, Lassa entry inh -1%[46.1 µM], Marburg entry inh inconclusive, NS1 inh -3% and StopGo reporter 0%.
CCN(CC(=O)NC(=O)NC1CCCC1)Cc1ccccc1 was read as RE007 growth inh -5%, SARS PLpro yeast 0%, Lassa entry inh inconclusive, Marburg entry inh -1% and StopGo reporter -5%.
For COc1ccc2c(C)cc(=O)oc2c1C the results were RE007 growth inh -25%, Cruzain inh noDet -8%, SARS PLpro yeast 8%, Lassa entry inh 8%, Marburg entry inh 13%, Cruzain inh Det -6.2%, NS1 inh -12% and StopGo reporter 18%.
`O=C(CCCSc1nc2ccccc2[nH]1)NCc1ccccc1F` gave RE007 growth inh -6%, SARS PLpro yeast 0%, Lassa entry inh 4%, Marburg entry inh -23%[46.1 µM] and StopGo reporter -9%.
Screening CCOc1c(Cl)cc(C(=O)NCCN2CCCCC2)cc1Cl returned RE007 growth inh 2%, Cruzain inh noDet 1%, SARS PLpro yeast 17%, Lassa entry inh -14%, Marburg entry inh inconclusive, Cruzain inh Det 2.5%, NS1 inh -11% and StopGo reporter -8%.
Screening CCOC(=O)C1=C(C)N(c2ccc(C)cc2)C(=O)/C1=C\c1cccs1 returned RE007 growth inh 12%, Cruzain inh noDet -3%, SARS PLpro yeast 0%, Lassa entry inh -11%, Marburg entry inh -18%, Cruzain inh Det -2.8%, NS1 inh 11% and StopGo reporter 9%.
For Cc1ccccc1/C(N)=N/OC(=O)N1c2ccccc2Sc2ccccc21 the results were RE007 growth inh -23%, Cruzain inh noDet 7%, SARS PLpro yeast -33%, Lassa entry inh -5%, Marburg entry inh -8%, Cruzain inh Det -7.6%, NS1 inh -43% and StopGo reporter -17%.
For O=C(CCn1c(=O)c2ccccc2n(CC(=O)Nc2cccc(F)c2)c1=O)NCCc1ccccc1 the results were Cruzain inh noDet -8%, Lassa entry inh 29%[46.1 µM], Marburg entry inh -15%[46.1 µM], Cruzain inh Det -0.7% and StopGo reporter -9%.
CCn1c(NCc2ccc(N(C)C)cc2)nc2ccccc21 was read as RE007 growth inh -10%, Cruzain inh noDet 0%, SARS PLpro yeast 0%, Lassa entry inh 21%, Marburg entry inh -14%, Cruzain inh Det 1.5%, NS1 inh -6% and StopGo reporter 30%[activator].
Screening CCCNC(=O)C12CCC(C)(C(=O)C1Br)C2(C)C (centres undefined) returned Cruzain inh noDet -3%, SARS PLpro yeast -27%, Lassa entry inh 6%, Marburg entry inh 30%, Cruzain inh Det 0.2%, NS1 inh 2% and StopGo reporter -7%.
Screening C/C(=N\Nc1ccc(S(N)(=O)=O)cc1[N+](=O)[O-])c1cccs1 returned RE007 growth inh 5%, SARS PLpro yeast 0%, Lassa entry inh 0%[46.1 µM], Marburg entry inh -22%[46.1 µM], NS1 inh inconclusive and StopGo reporter 2%.
For Cc1c(C)c2ccc(O[C@@H]3O[C@H](CO)[C@@H](O)[C@H](O)[C@H]3O)c(C)c2oc1=O the results were RE007 growth inh -10%, SARS PLpro yeast -2%, Lassa entry inh inconclusive, Marburg entry inh inconclusive, NS1 inh 2% and StopGo reporter 0%.
`Nc1nc(SCc2ccccc2Cl)c2ncn(C3OC(CO)C(O)C3O)c2n1` (centres undefined) gave RE007 growth inh -12%, Lassa entry inh inconclusive, Marburg entry inh 1%[46.1 µM] and StopGo reporter inconclusive.
CCC(=O)N(Cc1cc(=O)[nH]c2ccccc12)c1ccccc1 was read as RE007 growth inh 8%, SARS PLpro yeast 1%, Lassa entry inh 2%, Marburg entry inh 9%, NS1 inh 4% and StopGo reporter -1%.
Screening COc1ccccc1CCc1nnc(CCC(=O)NCC(C)Oc2cccnc2)o1 (centres undefined) returned RE007 growth inh 15%, SARS PLpro yeast 0%, NS1 inh 0% and StopGo reporter -22%.
For CCOc1ccc(-c2nc(C#N)c(NCCCOC)o2)cc1 the results were Cruzain inh noDet 60%, Lassa entry inh -4%[46.1 µM], Cruzain inh Det -29% and StopGo reporter 0%.
Screening C/C(=N\NC(=O)c1cc(-c2ccc(C)s2)[nH]n1)c1ccco1 returned RE007 growth inh 37%, Cruzain inh noDet 1%, SARS PLpro yeast 17%, Lassa entry inh -1%, Marburg entry inh 4%, Cruzain inh Det -9.0%, NS1 inh 10% and StopGo reporter 61%[activator].
For O=C(Oc1ccnc2cc(Cl)ccc12)N1CCOCC1 the results were RE007 growth inh 3%, Cruzain inh noDet 0%, SARS PLpro yeast 8%, Lassa entry inh -22%, Marburg entry inh -9%, Cruzain inh Det 0.8%, NS1 inh -10% and StopGo reporter -17%.
Screening Cc1ccc2c(COn3nnc4ccc(S(=O)(=O)N(C)C)cc43)cc(=O)oc2c1C returned Cruzain inh noDet inconclusive, SARS PLpro yeast 0%, Marburg entry inh 1%, Cruzain inh Det -6.5% and NS1 inh -1%.
Screening COc1ccc(OC)c(NC(=O)c2ccc3c(SCC(=O)O)c4c(nc3c2)CCCC4)c1 returned Cruzain inh noDet inconclusive, Lassa entry inh 3%[46.1 µM], Marburg entry inh 6%[46.1 µM], Cruzain inh Det -8.3% and StopGo reporter -29%.
`COc1ccc(N/N=C(/C#N)S(=O)(=O)c2nsc(C)c2C#N)cc1` gave RE007 growth inh 5%, Cruzain inh noDet inconclusive, SARS PLpro yeast 6%, Lassa entry inh -19%, Marburg entry inh -14%, Cruzain inh Det inconclusive, NS1 inh 13% and StopGo reporter 32%[activator].
Screening Cc1nnc(SCC(=O)N2CCc3ccccc3C2)s1 returned RE007 growth inh 40%, Cruzain inh noDet 3%, SARS PLpro yeast 1%, Lassa entry inh 15%, Marburg entry inh 18%, Cruzain inh Det -3.5%, NS1 inh 3% and StopGo reporter 27%.
CSc1ccc(Cl)c(C(=O)NC2CCCC2)c1 was read as RE007 growth inh -9%, Cruzain inh noDet -2%, SARS PLpro yeast 6%, Lassa entry inh 16%, Marburg entry inh 1%, Cruzain inh Det -2.2%, NS1 inh 14% and StopGo reporter -10%.
For Cc1ccnc(NS(=O)(=O)c2ccc(NC(=O)C3COc4ccccc4O3)cc2)n1 (centres undefined) the results were RE007 growth inh -5%, SARS PLpro yeast -1%, NS1 inh -2% and StopGo reporter 13%.
`O=C(COC(=O)CCc1ccc(S(=O)(=O)N2CCOCC2)cc1)Nc1ccccc1OC(F)F` gave RE007 growth inh 8%, SARS PLpro yeast 15%, Lassa entry inh 5%[46.1 µM], Marburg entry inh -3%[46.1 µM] and StopGo reporter -3%.

Screens (PubChem)
